Screens as filed in PubChem.
Insulin prom inh: TRM-6 insulin promoter activity inhibition; inhibition, % at 2 µM; TRM-6 cells (human fetal islet line), insulin promoter-eGFP reporter, imaging; reporter expression induced with tamoxifen; 130,000 compounds, 0.9% hits;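 active means inhibition above the mean plus 3 SD, with well images judged a real hit on visual review, cut at about 60% in these data, passing the limit was not always enough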
PKD1 kinase inh: inhibitors of human PKD1 kinase. Q15139. PKD1 kinase fluorescence polarization assay. inhibition, %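 (about 10 µM by stock and volumes)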. 200,000 compounds, 0.056% hits. AID 797;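 active means inhibition of 50% or more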;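 further: controls were vehicle for no effect and a reference inhibitor for full effect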
GALR2 agonist: GALR2 (human) receptor agonism; activation, %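 (tested at 5 µM)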; O43603; GALR2-expressing cells, agonist activation read-out; 140,000 compounds, 0.48% hits;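 active means above mean plus 3 SD of all compounds, about 5% in these data, not always enough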;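 further: 0% = vehicle buffer wells and 100% = reference agonist at full effect; tested in CHO reporter cells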
Target sequence (O43603 whole entry, looked up): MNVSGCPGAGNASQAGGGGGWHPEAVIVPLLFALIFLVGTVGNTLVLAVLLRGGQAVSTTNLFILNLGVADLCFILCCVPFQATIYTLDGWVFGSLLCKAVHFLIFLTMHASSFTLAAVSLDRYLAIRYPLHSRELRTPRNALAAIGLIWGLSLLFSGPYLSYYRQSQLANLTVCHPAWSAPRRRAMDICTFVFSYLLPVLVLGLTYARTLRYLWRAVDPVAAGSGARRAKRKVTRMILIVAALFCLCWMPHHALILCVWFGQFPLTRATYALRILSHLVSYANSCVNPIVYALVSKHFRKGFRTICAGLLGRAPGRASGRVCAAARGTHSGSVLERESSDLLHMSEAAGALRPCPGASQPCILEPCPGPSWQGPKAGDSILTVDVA
HSV replic up: HSV replication enhancement. HSV replication augmentation in cells, fold increase. 220,000 compounds, 0.005% hits. AID 1956. maximum fold increase;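 active means peak rise of 1.5-fold or more in the series; tested in PC3 cells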;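 further: first round at 10 µM; read as green reporter fluorescence; hits show the peak of a series up to 25 µM; 1 = signal of infected wells without compound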
RGS16-Gao: RGS16-Galphao interaction regulator (human); O15492+P09471; bead-based flow cytometry RGS16-Galphao binding, fluorescence; actives lie on both sides; binding response (% of control), % at 10 µM; 220,000 compounds, 0.38% hits; AID 1441;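 active means below 25% or above 175%, edge rows of some plates excepted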;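 further: Galphao activated by GDP with aluminum fluoride before binding; 100% = wells without compound and 0% = beads without RGS; some results beyond the cut were filed as inactive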
Target sequence (O15492 whole entry, looked up): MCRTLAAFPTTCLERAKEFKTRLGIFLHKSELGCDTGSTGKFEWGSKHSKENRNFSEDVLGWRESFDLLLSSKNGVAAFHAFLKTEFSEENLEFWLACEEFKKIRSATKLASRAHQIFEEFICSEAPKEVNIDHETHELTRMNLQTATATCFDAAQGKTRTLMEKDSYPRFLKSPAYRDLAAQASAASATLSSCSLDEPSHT
Target sequence (P09471 whole entry, looked up): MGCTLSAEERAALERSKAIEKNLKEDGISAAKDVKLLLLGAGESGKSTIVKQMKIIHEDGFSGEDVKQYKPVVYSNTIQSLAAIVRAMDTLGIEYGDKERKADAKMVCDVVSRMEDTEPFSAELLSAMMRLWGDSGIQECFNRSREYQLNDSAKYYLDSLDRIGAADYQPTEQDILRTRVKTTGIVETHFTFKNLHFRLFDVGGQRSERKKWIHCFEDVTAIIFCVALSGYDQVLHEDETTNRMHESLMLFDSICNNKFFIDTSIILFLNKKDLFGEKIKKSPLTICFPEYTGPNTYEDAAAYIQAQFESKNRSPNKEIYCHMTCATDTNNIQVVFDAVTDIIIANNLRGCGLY
Insulin prom inh cell count: also measured in Insulin prom inh; calls as there; normalized cell count, %; measured here: cell count, toxicity; reference of the scale not given here;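 cells exposed to compound for 48 h; stained nuclei by imaging scaled within each plate; lower means fewer cells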
HSV replic up primary fold: further read-out of HSV replic up, marked with its call; fold increase; compound at 10 µM; measured here: primary screen fold increase 10 uM; tested in PC3 cells;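 GFP signal in the first replicate; 1 = infected wells without compound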
* = called active by the depositor; i = inactive; . = no result given.

SMILES	Insulin prom inh	Insulin prom inh cell count	PKD1 kinase inh	GALR2 agonist	HSV replic up	HSV replic up primary fold	RGS16-Gao
CC(C)N(C(=O)C(=O)c1cccn1-c1ccccc1C#N)C(C)C	-20.0	247.7	7.2	-3.3	i	1.03	96.5
CN(Cc1ccccc1)S(=O)(=O)c1ccc(Cl)c(C(=O)OCC(N)=O)c1	.	.	.	.	i	1.11	97.0
COc1cc2c3nnc(-c4ccccc4)c-3cn(Cc3ccc(F)cc3)c2cc1OC	-5.6	111.7	-2.0	.	.	.	100.0
Fc1ccc(-c2[nH]ncc2CN2CCN(c3ccc(F)cc3)CC2)cc1	.	.	.	.	i	1.02	96.8
Cc1ccc(NC2=Nc3ccccc3CS2)cc1	-15.2	74.6	-12.8	-0.6	i	1.06	102.4
OC(c1ccccc1)c1nccn1Cc1ccccc1 (stereo unspecified)	0.0	123.9	5.7	-1.1	i	0.987	99.3
O=C(Cc1cccc2ccccc12)N1CC[C@@]2(O)CCCC[C@H]2C1	.	.	.	.	i	0.89	97.4
Oc1ccccc1CNc1ccc(OC(F)(F)F)cc1	.	.	0.5	.	i	0.78	101.7
O=C(O)c1cccc(Cn2cc(Br)cn2)c1	.	.	-5.1	-1.4	.	.	103.9
CC1=NNC(=O)C1CC(=O)N/N=C(\C)c1ccco1 (stereo unspecified)	21.4	103.8	0.7	.	i	1.03	97.5

3 of the compounds above, with each value named.
> Oc1ccccc1CNc1ccc(OC(F)(F)F)cc1
  Insulin prom inh: .; Insulin prom inh cell count: .; PKD1 kinase inh: 0.5; GALR2 agonist: .; HSV replic up: i; HSV replic up primary fold: 0.78; RGS16-Gao: 101.7

> O=C(O)c1cccc(Cn2cc(Br)cn2)c1
  Insulin prom inh: .; Insulin prom inh cell count: .; PKD1 kinase inh: -5.1; GALR2 agonist: -1.4; HSV replic up: .; HSV replic up primary fold: .; RGS16-Gao: 103.9

> CC1=NNC(=O)C1CC(=O)N/N=C(\C)c1ccco1 (stereo unspecified)
  Insulin prom inh: 21.4; Insulin prom inh cell count: 103.8; PKD1 kinase inh: 0.7; GALR2 agonist: .; HSV replic up: i; HSV replic up primary fold: 1.03; RGS16-Gao: 97.5

Continuation:
SMILES	Insulin prom inh	Insulin prom inh cell count	PKD1 kinase inh	GALR2 agonist	HSV replic up	HSV replic up primary fold	RGS16-Gao
COc1cc(C(=O)NC(=S)NCc2ccco2)cc(OC)c1OC	.	.	-5.4	-1.4	i	0.88	104.0
CCn1ncc(Br)c1C(=O)Nc1nccs1	-27.8	140.3	4.0	-1.5	i	0.9	96.6
Cc1cc[n+](CC(=O)Nc2cc(C(F)(F)F)ccc2Cl)cc1	23.3	66.1	-8.0	-1.6	i	0.84	97.5
O=c1[nH]c(/C=C/c2ccc(OC(F)F)cc2)nc2c1cnn2-c1ccccc1	.	.	2.2	.	i	0.87	103.0
O=C(COC(=O)c1ccc[nH]c1=O)NC1CCCc2ccccc21 (stereo unspecified)	.	.	.	.	i	0.91	103.8
Cc1nc2c(Br)c3nc(C(F)(F)F)[nH]c3c(Br)c2[nH]1	0.0	45.4	-17.3	-1.9	i	0.93	98.0
Cc1c(C(=O)Nc2nnc(SCc3ccccc3Cl)s2)cccc1[N+](=O)[O-]	3.6	54.1	-5.1	-0.6	i	1.05	103.8
Cc1ccc(CNc2ccc(S(=O)(=O)N3CCOCC3)cc2[N+](=O)[O-])cc1	.	.	5.7	1.3	i	1.03	105.0
CN(C)/C=C/C(=O)/C=C/c1ccc(Cl)cc1	.	.	3.4	.	i	1.02	101.5
O=C(CSc1nc2ccc(NC(=O)CSc3nnnn3-c3ccccc3)cc2s1)Nc1ccccc1	33.3	97.2	5.4	-2.0	i	0.63	67.3
CCOC(=O)c1cnn(Cc2ccccc2)c1N	-42.9	110.3	-6.0	-1.9	i	0.81	111.8
O=C(CSc1ncccn1)N/N=C/c1cccc([N+](=O)[O-])c1	23.5	108.2	-4.2	-0.3	i	1.09	105.4
COc1ccc(N=Cc2c(O)c3ccccc3oc2=O)cc1	.	.	-6.2	0.6	i	1.12	105.7
COc1ccccc1NC(=O)COc1ccc(C(=O)OCC(=O)NC(C)(C)C)cc1OC	.	.	-4.8	.	i	1.01	101.2
COc1ccc(C)cc1NC(=O)Nn1cnnc1	28.1	20.8	5.3	-6.6	i	0.82	103.4
Cc1oc(C(C)(C)C)cc1C(=O)NC1CCN(Cc2ccccc2)CC1	.	.	.	.	i	0.89	105.7
CN(C)c1nc(SCC(=O)Nc2ccccc2)nc(N2CCOCC2)n1	-16.7	73.6	-16.0	.	i	0.89	102.1
CCOc1ccc(NS(=O)(=O)c2ccc(NS(=O)(=O)c3ccc(SC)cc3)cc2)cc1	-57.1	50.7	-1.8	-1.9	i	0.86	99.4
CC1=CC(=O)C=C(C)C1=NOc1ccc([N+](=O)[O-])cc1	100.0*	25.7*	-2.4	.	i	0.91	107.4
Cn1c(NC(=O)/C=C/c2ccco2)cc(=O)n(C)c1=O	-35.7	114.3	-2.6	-0.1	i	1.11	108.4
O=S(Cc1cc(Oc2ccccc2)nc(-c2ccccc2)n1)c1ccccc1 (stereo unspecified)	-29.0	121.6	-0.6	-2.5	i	0.98	102.9
Cc1cccc2cc(/C=N/NC(=O)CN3CCCCC3)c(Cl)nc12	14.3	99.6	-5.5	.	i	0.94	101.5
CCOC(=O)C1CCN(C(=O)c2cn(C)c(=O)c3cc(OC)c(OC)cc23)CC1	18.4	69.3	0.1	-1.0	i	0.92	101.7
COc1ccccc1/C=N/NC(=O)C(=O)N1CCN(c2ccccc2OC)CC1	31.6	100.7	-8.2	-1.1	i	0.96	112.5
CC1Cc2ccccc2N1Cc1nc2cc(C(F)(F)F)ccc2c(=O)[nH]1 (stereo unspecified)	-40.5	121.6	5.0	-0.8	i	0.73	101.4
CCC1CCCCN1S(=O)(=O)c1ccc(NC(=O)CSc2ncccc2C(=O)O)cc1 (stereo unspecified)	.	.	1.4	-0.9	i	0.86	101.3
CCCn1c(=O)c2c(C(=O)OCC)cc(-c3ccco3)nc2n(CCC)c1=O	.	.	-3.4	-1.7	.	.	105.7
COc1ccc(OCCNC2CCCC2)cc1	29.6	148.4	4.1	-0.8	i	0.94	108.4
O=C(NCc1ccco1)C(=O)N1CCCC1	.	.	-6.2	.	i	1.04	104.5
O=C(NNC(=S)Nc1ccccc1)c1ccc(O)cc1	.	.	.	.	i	0.96	101.6
O=C(Nc1ccc2c(c1)OCCO2)C1CCN(S(=O)(=O)Cc2ccccc2)CC1	.	.	6.0	-1.9	i	0.9	96.7
Cn1c(CNC(=O)c2ccc(Cl)c(Cl)c2)nnc1SCC(=O)Nc1sc2c(c1C#N)CCCC2	6.9	88.0	-5.2	-0.4	i	0.89	103.7
C=CCC1(Cl)C(=O)C(Cl)=C(N2CCOCC2)C1(OC)OC (stereo unspecified)	.	.	.	.	i	0.97	97.1
FCCCOc1ccc(-c2nccc(-c3ccc(F)cc3)n2)cc1	0.0	111.9	-5.4	-3.1	i	0.86	102.0
CN1C(=O)NC(NC(=O)c2cccs2)(C(F)(F)F)C1=O (stereo unspecified)	.	.	2.8	-0.3	i	1.11	98.3
O=C1c2ccccc2C(=O)N1CCCOCc1c[nH]c(=O)[nH]c1=O	11.5	118.7	4.0	-1.5	i	1.02	106.0
O=C1OCCC1Sc1nc2ccccc2n1Cc1ccccc1 (stereo unspecified)	43.8	122.6	-3.2	-1.7	i	0.97	100.4
Cn1c(=Nc2ccccc2)sc2ccccc21	-23.3	101.0	-5.0	0.7	i	1.08	102.7
Cc1cc(SCC(=O)c2cccs2)nc2c(C)cccc12	20.9	58.7	-5.5	1.0	.	.	105.1
O=C(NC1CC1)C1=C[C@H](c2ccc3c(c2)OCO3)C[C@H](OCc2ccc(CO)cc2)O1	.	.	0.6	.	i	0.94	95.4
COc1ccc(S(=O)(=O)Nc2cccc(SC)c2)cc1OC	-34.2	96.6	-1.0	-0.6	i	1.12	125.7
CCN(CC)S(=O)(=O)c1ccc(N/N=C/c2cc(OC)c(OC)cc2OC)nc1	0.0	63.8	4.3	49.3*	i	0.88	94.0
COc1nc(OCC#N)nc(N(C)C)n1	-27.0	72.7	-5.5	-0.5	i	1.06	101.7
CCN(CC)C(=O)C1CC(=O)N(c2ccc(F)c(Cl)c2)C1 (stereo unspecified)	.	.	17.6	-0.7	i	0.83	99.8
O=C(CSc1n[nH]c(=O)n1-c1ccccc1)Nc1ccccc1	.	.	.	.	i	1.08	99.4
CCC(C)(C)NC(=O)c1cc([N+](=O)[O-])ccc1N1CCCCC1	-73.3	101.4	-8.1	0.0	i	0.98	100.7
Cc1cccc(C)c1NC(=S)N(CCN(C)C)C(C)c1cccnc1 (stereo unspecified)	-64.3	97.2	-3.3	.	i	0.81	104.0
CCOC(=O)C1=C(CS(=O)(=O)c2ccccc2)NC(=O)NC1c1ccc(O)c(OC)c1 (stereo unspecified)	.	.	.	.	i	0.99	104.0
CC12CCC(C(=O)N(CC(=O)O)C1=O)C2(C)C (stereo unspecified)	10.0	96.4	-0.8	.	i	0.87	107.9
O=C(/C=C/c1cccs1)NC(=S)Nc1ccc(C(=O)O)cc1	.	.	.	.	i	1.44	101.4

(cont.)
SMILES	Insulin prom inh	Insulin prom inh cell count	PKD1 kinase inh	GALR2 agonist	HSV replic up	HSV replic up primary fold	RGS16-Gao
CS(=O)(=O)Nc1ccc(C(=O)NCCc2ccccc2)cc1	9.5	121.1	-12.1	-0.9	i	0.98	103.2
COc1ccccc1OCC(=O)NNC(=O)c1ccoc1C	-7.9	97.1	-1.1	-0.3	i	0.88	88.6
COc1ccccc1/C=C(/CC(=O)NCc1ccc(F)cc1)c1nc2ccccc2s1	60.0	88.8	-2.9	-0.8	i	0.89	102.6
CCN(CC)c1ccc(CN2CCCCCC2)cc1	0.0	114.6	5.4	-0.9	i	0.94	88.1
Cc1ccc(S(=O)(=O)N(C(=O)c2ccncc2)c2ccc(OC(=O)c3ccncc3)c3ccccc23)cc1	.	.	5.5	-0.8	.	.	98.8
Cc1ccc(OCC(=O)N/N=C2/SCC(=O)N2Cc2ccco2)cc1	.	.	-0.6	.	i	1.06	98.8
CCOC(=O)c1c(-n2cnnn2)sc2c1CCCC2	.	.	.	.	i	0.93	101.1
O=C(Nc1ccc2c(c1)OCO2)c1cnn2cccnc12	12.5	118.6	1.0	374.0*	i	0.88	98.8
Cc1ccc(C(=O)NN2C(=O)CSC2=S)cc1	-40.7	128.3	8.5	1.0	i	1.04	104.5
CC(NC(=O)C(=O)NN=C1CCCC1)c1ccccc1 (stereo unspecified)	.	.	-4.2	.	i	1.05	41.2
Nc1cc2sc(-c3ccc(C(=O)O)cc3)nc2cc1Cl	-33.3	113.8	10.7	1.8	i	0.96	108.3
COCC(=O)Nc1ccccc1Br	-22.2	117.8	1.2	-0.8	i	0.94	109.1
Cn1nnc(NC(=O)c2ccc3ccccc3c2)n1	31.2	76.8	1.9	-0.7	i	1.04	95.5
O=C(c1cccs1)N1CCN=C1SCc1cccc(F)c1	.	.	.	.	i	0.95	105.1
CC(C)(C)NC(=O)C1CCN(C(=O)c2ccc(-c3ccccc3)cc2)CC1	14.3	27.6	-1.8	-1.2	i	0.927	95.3
CC(Sc1nnc(C(F)(F)F)n1C)C(=O)NC(N)=O (stereo unspecified)	-5.3	146.6	3.5	-0.6	i	1.02	103.0
O=C(NN1C(=O)c2ccccc2NC1c1ccccn1)c1ccccc1 (stereo unspecified)	-26.7	119.5	8.5	-0.4	i	1	123.1
CCOc1ccccc1NC(=O)CN1C(=O)COc2ccc(Cl)cc21	.	.	-14.1	-0.9	i	0.77	85.3
COc1cccc(C2CC(C(F)(F)F)n3ncc(C(=O)NC(C)(C)C)c3N2)c1 (stereo unspecified)	-82.9	74.7	-1.1	-1.4	i	1.05	108.1
COc1cccc(/C=C/C2=CC(C)(C)NC(=S)N2)c1	.	.	1.5	.	i	0.8	96.9
COc1ccc(-n2nnnc2-c2cccnc2)cc1	3.3	130.8	-0.8	-1.0	i	0.973	99.0
CCOCCCNC(=O)c1ccc(Cn2c(=O)[nH]c3ccsc3c2=O)cc1	.	.	-2.6	.	i	1	99.1
Cc1ccccc1NC(=O)OCCN1CCN(Cc2ccccc2)CCC1=O	-71.4	96.8	-6.5	-1.7	i	0.87	106.5
COCCNC(=O)CN(C(=O)CCC(=O)Nc1ccccn1)c1ccccc1F	-6.7	88.9	-3.5	.	i	0.98	103.7
O=C(Nc1nc(-c2ccc(S(=O)(=O)N3CCCC3)cc2)cs1)c1cccs1	-191.4	108.2	4.7	-1.6	i	1	100.9
N#CC(c1ccc(Cl)cc1)(c1ncc(C(F)(F)F)cc1Cl)N1CCOCC1 (stereo unspecified)	6.2	102.4	-1.6	-1.3	.	.	111.6
